Compound activity deposited in PubChem BioAssay by National Center for Advancing Translational Sciences (NCATS).
GAA glycogen mod = inhibitors or activators of human alpha-glucosidase glycogen cleavage; actives 0.38% (n = 300,000); recombinant GAA, glycogen substrate, Amplex Red glucose oxidase fluorescence; Potency, µM (series often up to 76.4 µM), without a hit: at the highest dose activity change, negative = inhibition, actives largely listed as inhibitors;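 further: 0% = full enzyme reaction and -100% = no-enzyme basal signal; the screen sought inhibitors and activators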
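Natural-substrate format: glycogen cleavage by 4 nM human enzyme, glucose read by Amplex Red coupling (Ex 573, Em 610 nm). Normalized to enzyme and no-enzyme controls.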
GoLoco inh red = blocks human Gai1 binding to RGS12 GoLoco peptide, red readout; Potency, µM (doses to about 61.6 µM), without a hit: at the highest dose activity, negative = inhibition, actives largely listed as inhibitors; AID 880; P63096; Gai1:RGS12 GoLoco peptide FP, rhodamine, 10 min; actives 0.44% (n = 230,000); active means well fitted inhibition curve with a large enough effect, not every such curve was filed as active; inactive means no such curve, though single readings can be large or run the other way; further: on the % scale 0 is the no-effect control and ±100 the full control effect; nearly all actives have a fitted effect of over 30% in size; many of its hits are not listed in these tables
Target sequence (P63096 whole entry, looked up): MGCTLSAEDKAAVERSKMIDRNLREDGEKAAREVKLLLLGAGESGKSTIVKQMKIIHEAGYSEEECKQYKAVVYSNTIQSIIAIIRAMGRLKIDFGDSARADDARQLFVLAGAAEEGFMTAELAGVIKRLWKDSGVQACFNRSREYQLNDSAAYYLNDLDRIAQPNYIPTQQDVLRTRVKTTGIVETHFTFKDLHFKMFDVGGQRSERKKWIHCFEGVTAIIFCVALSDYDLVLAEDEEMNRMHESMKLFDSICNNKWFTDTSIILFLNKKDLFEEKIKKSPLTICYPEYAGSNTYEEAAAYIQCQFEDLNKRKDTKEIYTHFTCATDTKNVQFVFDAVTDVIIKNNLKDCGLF
aGlu spleen mod = inhibitors or activators of human alpha-glucosidase in spleen homogenate | Potency, µM (doses to about 79.9 µM), inactives show top-dose activity change, negative = inhibition, usual class: inhibitors | human spleen homogenate, 4-MU-alpha-glucoside fluorescence | actives 0.006% (n = 240,000);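 further: 0% = enzyme with vehicle and -100% = no enzyme basal signal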
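Human spleen homogenate (1 ug) incubated with compounds and 1 mM 4-methylumbelliferyl-alpha-D-glucopyranoside in pH 5.0 citrate/phosphate buffer, 37 C, 40 min. Stopped at pH 10; 4-MU fluorescence (Ex 365/Em 440 nm); AC50 by Hill fit.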
GAA inhib = blocks human lysosomal alpha-glucosidase | P10253 | purified human GAA, 4-MU-alpha-glucoside fluorescence | actives 0.005% (n = 200,000) | Potency, µM (highest dose often 76.9 µM), without a hit: top-dose activity change, negative = inhibition, actives largely listed as inhibitors | AID 1466;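 further: plate controls were uninhibited enzyme wells for no effect and no-enzyme background for full effect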
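Endpoint fluorogenic read: 20 min room-temperature reaction of 4 nM human alpha-glucosidase with 400 uM 4-methylumbelliferyl-alpha-D-pyranoside, pH 5.0, quenched with 1M NaOH/1M glycine pH 10. AC50 from Hill modeling.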
JMJD2E inh = blocks human JMJD2E demethylase activity; B2RXH2; JMJD2E catalytic domain, FDH-coupled NADH fluorescence (FDH is formaldehyde dehydrogenase); Potency, µM (highest dose often 57.1 µM), without a hit: at the top dose activity change, negative = inhibition, actives largely listed as inhibitors; actives 1.6% (n = 230,000); active means well fitted inhibition curve with a large enough effect, not every such curve was filed as active; inconclusive means small, poorly fitted or top-dose-only effect, or another doubt; inactive means no such curve, though single readings can be large or run the other way;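 further: 0% = wells with enzyme and -100% = buffer wells without enzyme; nearly all actives have a fitted effect of over 50% in size; many of its hits are not listed in these tables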
GLA spleen mod = inhibitors or activators of human alpha-galactosidase in spleen homogenate; P06280; human spleen homogenate, 4MU-alpha-Gal fluorescence, 40 min; Potency, µM (doses to about 80 µM), for inactives: at the highest dose activity change, negative = inhibition, actives largely listed as inhibitors; actives 0.008% (n = 240,000); AID 2107;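 further: 0% = enzyme with vehicle and -100% = no enzyme basal signal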
Target sequence (P06280 32-429 limits assumed): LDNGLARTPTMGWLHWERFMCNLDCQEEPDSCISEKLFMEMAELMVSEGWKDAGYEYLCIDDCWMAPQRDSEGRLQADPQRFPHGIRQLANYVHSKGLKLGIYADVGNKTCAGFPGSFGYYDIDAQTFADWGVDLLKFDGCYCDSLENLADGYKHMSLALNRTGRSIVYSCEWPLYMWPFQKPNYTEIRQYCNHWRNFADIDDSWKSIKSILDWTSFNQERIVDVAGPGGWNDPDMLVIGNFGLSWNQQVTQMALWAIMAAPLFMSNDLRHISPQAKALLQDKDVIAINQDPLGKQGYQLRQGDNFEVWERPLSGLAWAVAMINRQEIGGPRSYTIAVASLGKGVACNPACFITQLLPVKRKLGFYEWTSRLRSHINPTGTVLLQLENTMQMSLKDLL
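Inhibition or activation of alpha-galactosidase in human spleen homogenate is scored by 4-MU fluorescence after 40 min at 37C, pH 5.0, with 1 mM substrate. AC50s come from concentration-response fitted to the Hill equation.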
SMN2 splice up = SMN2 splice variant enhancement. HEK293 SMN2-luciferase splicing reporter, luminescence, 30-36 h. Potency, µM (titrated, usually from 46.1 µM), inactives show at the highest dose activity change, positive = activation, actives largely listed as activators. actives 2.8% (n = 210,000). AID 1458; further: % of control where 0% means no effect; nearly all actives have a fitted effect of over 55% in size
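HEK293 cells carry an SMN2 […]–luciferase reporter in which exon 7 inclusion puts luciferase in frame. Cells were plated 10-12 h before compound addition, then incubated 30-36 h at 37C. ONE-Glo luminescence was read; sodium butyrate at 4.5 mM final served as control.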
An asterisk follows results filed as active; u = inconclusive; x = no result given; & = joins results of further samples; [ ] = remark or other dose. Unless noted, the call rests on the fitted dose curve; in most records, active means well fitted curve in the direction sought with a large enough effect; inconclusive means small, poorly fitted or top-dose-only effect, or another doubt; inactive means no such curve, though single readings can be large; an effect the other way counts as inactive or inconclusive. Potency means the concentration at half of the fitted maximal effect. An excerpt; count on the stated rates, not on these rows.

SMILES	GAA glycogen mod	GoLoco inh red	aGlu spleen mod	GAA inhib	JMJD2E inh	GLA spleen mod	SMN2 splice up
Cc1cccc(C)c1NC(=S)N(CCCN1CCOCC1)Cc1cccnc1	-2.8%	13.9%	-3.4%	2.6%	5.7%	-6.5%	2.7%
CC(C)C(=O)Nc1nc2c(c(=O)[nH]1)CCCC2	9.4%	10.5%	0.4%	5.1%	2.5%	3.3%	-2.3%
CC(C)NC(=O)/C(C#N)=C/c1ccc2c(c1)OCCO2	16.0%	2.0%	-1.4%	3.4%	-11.5%	4.2%	1.8%
NC(=O)c1ccsc1NC(=O)COC(=O)C1CC2CCCC(C1)C2=O (stereo not given)	7.5%	10.5%	-11.5%	3.2%	-1.7%	4.3%	x
CC(=O)Nc1ccc(S(=O)(=O)N2CCN(CCCOc3ccccc3Cl)CC2)cc1	-2.1%	2.0%	2.2%	-8.4%	2.8%	-20.3%	-81.7%[inhibitor]
O=C(C1=C[C@@H](c2ccccc2)C[C@@H](OCc2ccc(CO)cc2)O1)N1CCOCC1	0.6%	0.7%	1.8%	x	-0.7%	-4.9%	x
COCCn1c(SCC(=O)OCc2ccccc2)nc2c1c(=O)[nH]c(=O)n2C	1.1%	0.0%	-1.0%	0.2%	11.5%	0.9%	-8.5%
CC(C)OC(=O)CSc1nnc(Cc2ccccc2)n1CC1CCCO1 (stereo not given)	4.0%	-2.0%	8.1%	-6.9%	4.6%	5.2%	7.8%
Cc1ccc(NC(=O)CCSc2nnc(-c3ccco3)o2)cc1	-1.5%	0.6%	-0.5%	-1.8%	1.6%	2.0%	9.0%
Cc1ccc(-n2c(=O)[nH]c3c(C(N)=O)nc(CC(C)C)nc32)cc1	1.5%	13.9%	1.1%	u	u	7.1%	4.3%
CCSc1nnc(NC(=O)c2cccnc2)s1	4.2%	-2.2%	0.7%	-4.3%	-5.1%	2.0%	u
N#C[C@@H](N=Nc1ccccc1C(=O)O)C(N)=O	x	-2.5%[14.2 µM]	x	x	x	x	-8.7%[9.22 µM]
O=C(Cc1ccccc1)CC1(O)C(=O)Nc2ccccc21 (stereo not given)	4.8%	-14.0%	-15.1%	-5.1%	0.5%	0.8%	u
Cc1c(/C=N\NC(=O)c2cccc(F)c2)cnn1C	2.1%	5.4%	-7.1%	-9.4%	2.0%	0.9%	23.4%
O=C(COc1ccc(S(=O)(=O)NCc2ccccc2)cc1Cl)N1CCOCC1	-2.5%	-0.9%	-6.2%	-7.2%	4.2%	25.5%	-19.7%
O=C(Nc1ccccc1)OCc1cc(-c2ccccc2Cl)on1	-2.4%	1.5%	-7.5%	-6.0%	0.6%	-0.1%	u
CC(=O)N[C@@H](CSC/C=C(\C)CCC=C(C)C)C(=O)O	x	5.6%&8.1%&0.9%	1.1%&-3.7%&3.9%	x	2.8%	5.2%&-4.4%&-3.7%	-2.5%&-8.0%&-4.4%
COc1ccc(-c2nc(-c3ccccn3)ncc2S(C)(=O)=O)cc1	6.9%	4.4%	0.9%	3.0%	2.9%	4.3%	-3.2%
CC(C)NC(=O)/C(=N\O)c1ccccc1	11.9%	9.0%	2.2%	5.8%	4.4%	6.4%	3.1%
CCc1nnc(NC(=O)CSc2nnc(CNc3ccc(Cl)cc3)o2)s1	2.8%	20.7%	-4.3%	-13.5%	-4.2%	-0.3%	12.0%
Cc1ccc(NC(=O)CC2SC(=O)NC2=O)cc1 (stereo not given)	1.7%	7.6%	-5.3%	3.9%	-8.9%	-4.0%	1.9%
Cc1onc(-c2ccccc2)c1C(=O)N/N=C/c1cn(C)c2ccccc12	-3.8%	10.9%	x	u	-13.5%	-10.8%	-24.2%
CSc1ccc(/C=N/NC(=O)c2cccc(O)c2)cc1	2.1%	16.7%	-6.7%	-2.3%	u	-1.3%	u
Cc1ccccc1C(=O)c1cccn1CC(=O)O	6.4%	16.3%	-0.3%	-7.9%	1.4%	2.4%	-6.2%
O=C1CN(C(=O)CSc2nncs2)c2ccccc2N1	-15.7%	-3.3%	1.3%	-7.0%	0.1%	-0.7%	-1.4%

3 entries from above, ordered by their value in GAA inhib, descending:
| structure | GAA inhib |
| --- | --- |
| CC(C)C(=O)Nc1nc2c(c(=O)[nH]1)CCCC2 | 5.1% |
| O=C1CN(C(=O)CSc2nncs2)c2ccccc2N1 | -7.0% |
| Cc1ccccc1C(=O)c1cccn1CC(=O)O | -7.9% |

Following part.
SMILES	GAA glycogen mod	GoLoco inh red	aGlu spleen mod	GAA inhib	JMJD2E inh	GLA spleen mod	SMN2 splice up
O=[N+]([O-])c1cccc(C(=Nc2ccc(Cl)cc2)NO)c1	-8.0%	-3.6%	-11.2%	0.7%	-0.6%	9.3%	-7.0%
C=CCC1CCCCC12NC(=O)NC2=O (stereo not given)	8.8%	7.3%	-19.6%	u	2.3%	-2.4%	13.9%
CCCCn1c(SCC(=O)Nc2nnc(C)s2)nc2c1c(=O)n(C)c(=O)n2C	9.1%	10.2%	9.6%	-7.7%	-1.8%	14.2%	-2.2%
CCn1cc(C(=O)NCCCN(C)c2ccccc2)c(=O)c2cc(S(=O)(=O)N(C)C)ccc21	-7.2%	-6.8%	-5.4%	0.4%	-12.6%	1.3%	-4.0%
O=C(COC(=O)CNC(=O)c1ccco1)NCc1ccc(F)cc1	4.4%	9.4%	1.0%	-4.0%	1.3%	4.1%	10.3%
CN(C)CCNc1nc2sc3c(c2c(=O)n1CCc1ccccc1)CCCCC3	-3.2%	2.2%	6.3%	u	-10.0%	3.8%	x
CCc1ccc(NC(=O)CCNS(=O)(=O)c2cccc3nsnc23)cc1	0.2%	3.9%	-6.2%	-3.3%	3.2%	-8.1%	-4.5%
COc1cc2c(cc1OC)CN(c1ccc([N+](=O)[O-])cc1Cl)CC2	4.8%	1.9%	-1.9%	-7.4%	8.0%	-0.6%	-37.4%[inhibitor]
Cc1oc(-c2cccc(Cl)c2)nc1CN1CCCC(C(=O)NCCCN2CCOCC2)C1 (stereo not given)	-37.5%	-0.3%	-6.5%	2.5%	-2.5%	2.3%	-27.4%
COc1ccc(C(=O)NCc2ccc(-c3nc4ccccc4s3)cc2)cc1	-2.2%	-2.0%	-2.5%	u	-16.2%	1.9%	-6.1%
Cc1c(Cl)c(C(=O)N2CCCC2)nn1C	-6.4%	-4.5%	0.7%	-3.1%	-1.2%	1.6%	12.3%
COc1cccc(C(=O)NC(Cc2ccccc2)c2ccc3c(c2)OCCCO3)c1 (stereo not given)	-4.4%	4.2%	-2.8%	-10.5%	-15.2%	3.8%	2.0%
CCOc1ccccc1C(=O)N[C@H](C(=O)Nc1ccc(OC)c(S(=O)(=O)N2CCOCC2)c1)C(C)C	5.8%	-11.8%	x	-10.5%	-6.2%	-3.7%	3.5%
O=C1OC(c2ccc(Br)cc2)=N/C1=C\N1CCCCC1	1.7%	19.1%	-7.7%	-0.7%	-26.4%	-5.8%	12.6µM*
CCN(CC)S(=O)(=O)c1ccc(NC(=O)c2c(-c3ccccc3)noc2C)cc1	2.6%	1.4%	-3.9%	-3.3%	-3.4%	-4.6%	-15.2%
O=C(NCCN1C(=O)S/C(=C\c2ccc(Cl)c(Cl)c2)C1=O)C1COc2ccccc2O1 (stereo not given)	-8.1%	22.7%	1.0%	-4.0%	u	2.2%	-10.2%
CC(=O)c1ccc(S(=O)(=O)NCCCC(=O)NCCc2ccccn2)cc1	7.2%	1.2%	7.7%	8.8%	0.5%	13.4%	-5.7%
O=C(NC(=S)NNC(=O)c1cccs1)c1ccco1	28.2µM*	10.3%	-18.1%	-6.0%	u	-15.5%	-18.6%
CC(=O)N1CCN(CC(=O)c2ccc(Br)cc2)CC1	-0.2%	10.8%	-9.7%	0.7%	7.4%	-0.8%	12.6%
Cc1ccc(NC(=O)CSc2nnc(Cn3c(=O)sc4ccccc43)n2C)cc1	2.3%	-0.2%	-1.6%	-30.2%	2.2%	0.2%	2.6%
CCOc1ccc(N2CC(C(=O)NCc3ccc(F)cc3)CC2=O)cc1 (stereo not given)	-8.0%	-12.1%	-1.2%	-23.8%	-3.6%	7.4%	-17.9%
Cc1cc(C)c(S(=O)(=O)N2CCCCC2)c(C)c1N(C)S(=O)(=O)c1ccccc1	3.8%	-9.9%	-4.1%	-11.0%	-4.5%	2.2%	-29.0%
Cc1ccc(S(=O)(=O)N2CCCCC2)cc1NC(=O)COC(=O)Cc1ccc(Cl)cc1	6.4%	4.1%	-3.4%	-3.3%	-3.5%	-14.3%	10.0%
CCCCCNC(=O)N[C@H](C(=O)O)C(C)C	-5.1%	2.2%	0.3%	9.7%	-5.0%	1.3%	-40.2%[inhibitor]
Nc1nc(N2CCN(c3ccc(Cl)cc3)CC2)n[nH]1	u	16.9%	-14.5%	10.3%	0.0%	1.3%	-9.3%
CCOC(=O)C(CCc1ccccc1)NC(C)C(=O)N1CCCC1C(=O)O (stereo not given)	x	5.4%	-1.9%	x	-29.2%	-11.5%	3.8%
Cc1nn(Cc2c(Cl)cccc2Cl)c(C)c1N	u	-5.4%	-12.2%	-7.6%	-8.7%	-16.1%	-12.3%

An excerpt from above, showing only SMN2 splice up, JMJD2E inh and aGlu spleen mod:
Molecule,SMN2 splice up,JMJD2E inh,aGlu spleen mod
Cc1cc(C)c(S(=O)(=O)N2CCCCC2)c(C)c1N(C)S(=O)(=O)c1ccccc1,-29.0%,-4.5%,-4.1%
CCc1ccc(NC(=O)CCNS(=O)(=O)c2cccc3nsnc23)cc1,-4.5%,3.2%,-6.2%
O=C(COC(=O)CNC(=O)c1ccco1)NCc1ccc(F)cc1,10.3%,1.3%,1.0%
CCCCCNC(=O)N[C@H](C(=O)O)C(C)C,-40.2%[inhibitor],-5.0%,0.3%
Cc1c(Cl)c(C(=O)N2CCCC2)nn1C,12.3%,-1.2%,0.7%

Grouped by structure, those above containing bromine (2)
SMILES	GAA glycogen mod	GoLoco inh red	aGlu spleen mod	GAA inhib	JMJD2E inh	GLA spleen mod	SMN2 splice up
O=C1OC(c2ccc(Br)cc2)=N/C1=C\N1CCCCC1	1.7%	19.1%	-7.7%	-0.7%	-26.4%	-5.8%	12.6µM*
CC(=O)N1CCN(CC(=O)c2ccc(Br)cc2)CC1	-0.2%	10.8%	-9.7%	0.7%	7.4%	-0.8%	12.6%
